gsp ag = qHTS for Agonist of gsp, the Etiologic Mutation Responsible for Fibrous Dysplasia/McCune-Albright Syndrome: qHTS | gsp mutant cells, cAMP HTRF, 30 min; control for the full effect not named in the record | 0.13% of 340,000 active | Potency, µM (highest dose often 76.9 µM), without a hit: at the highest dose activation (cAMP increase), usual class: activators; active = well fitted activation curve with a large enough effect; inconclusive = small, poorly fitted or top-dose-only effect, or another doubt; inactive = no such curve, though single readings can be large or run the other way; cell line not stated here;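 further: phosphodiesterase inhibitor Ro 20-1724 added with compounds to block cAMP breakdown; potency means the concentration at half of the fitted maximal effect; nearly all actives have a fitted effect of over 60% in size; about a fifth of the inactives were tested at one dose only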
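Cells in DMEM/10% FBS with G418 were pretreated with compounds in DMSO plus […] (300 uM stock) for 30 min at 37C. cAMP was measured by HTRF (cAMP-d2 plus anti-cAMP antibody-K) after 30 min at room temperature.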
ClpP mod = qHTS Assay for Activators of ClpP. 1.9% of 340,000 active. purified B. subtilis ClpP, FRET peptide cleavage, 20 min. ATP-dependent Clp protease proteolytic subunit (Bacillus subtilis (strain 168)), P80244. Potency, µM (top dose mostly 57.5 µM), for inactives: top-dose activity change, negative = active; active = well fitted falling curve with a large enough effect; inconclusive = small, poorly fitted or top-dose-only effect; inactive = no such curve, though single readings can be large or run the other way; further: potency means the concentration at half of the fitted maximal effect; the source files actives as falling curves though it sought activators and does not explain the sign; nearly all actives have a fitted effect of over 65% in size; many hits overshoot -100%
Target sequence (P80244 whole entry, looked up): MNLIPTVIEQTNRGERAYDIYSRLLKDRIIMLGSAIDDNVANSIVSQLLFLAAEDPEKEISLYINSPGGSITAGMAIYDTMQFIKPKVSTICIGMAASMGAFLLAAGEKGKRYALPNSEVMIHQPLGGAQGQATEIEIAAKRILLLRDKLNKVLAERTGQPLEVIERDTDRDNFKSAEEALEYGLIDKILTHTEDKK
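ClpP 10 microg/mL final, pH 8 Tris/KCl buffer with BSA, glycerol, Tween-20; compound pinned in; FRET-FV substrate; RT 20 min; Ex320/Em430; ΔFRET vs ADEP 5.8 microM, DMSO, no enzyme.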
gsp antagonist = qHTS for Antagonists of gsp, the Etiologic Mutation Responsible for Fibrous Dysplasia/McCune-Albright Syndrome: qHTS. gsp-mutant cells, cAMP HTRF, 30 min; control for the full effect not named in the record. Potency, µM (top dose mostly 76.9 µM), inactives show top-dose activity change, negative = inhibition, usual class: inhibitors. 0.4% of 340,000 active; active = falling curve of any shape with a large fitted effect; inconclusive = falling curve, mostly with a smaller effect; inactive = flat or rising curve; cell line not stated here;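 further: intracellular cAMP measured with PDE inhibitor Ro 20-1724 present during compound exposure; potency means the concentration at half of the fitted maximal effect; on the % scale 0 is the no-effect control and ±100 the full control effect; nearly all actives have a fitted effect of over 65% in size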
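HTRF cAMP read-out (cAMP-d2 plus anti-cAMP antibody-K in lysis buffer, 30 min RT). Before lysis, cells are exposed to compounds with […] for 30 min at 37C in DPBS containing Ca/Mg, BSA and Tween 20.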
PINK1 expr mod = A Quantitative High throughput Screen to Identify Chemical Modulators of PINK1 Expression; PINK1 immunofluorescence, high-content cytometry, 24 h; Potency, µM (highest dose often 76.6 µM), without a hit: top-dose activation (PINK1 increase), most hits filed as activators; 0.2% of 410,000 active; active = well fitted activation curve with a large enough effect; inconclusive = small, poorly fitted or top-dose-only effect; inactive = flat fitted curve, though single readings scatter; cell line not stated here;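 further: potency means the concentration at half of the fitted maximal effect; % of control where 0% means no effect; nearly all actives have a fitted effect of over 65% in size; a mitochondrial uncoupler was the plate control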
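Measures PINK1 amount and localization on or inside mitochondria by immunofluorescence. Stable cells get compounds at 5 concentrations for 24 hours before fixation and staining; CCCP controls included.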
Menin MLL FP FL = qHTS Assay for Inhibitors Targeting the Menin-MLL Interaction in MLL Related Leukemias: Competition With Fluorescein Labeled MLL-derived Peptide; FP activity change, % at 61.4 µM; Fluorescence polarization, fluorescein-MLL peptide displacement from menin; 290,000 tested, under 10 active; inconclusive = falling polarisation curve, or a change in total fluorescence; inactive = total fluorescence flat and polarisation flat or rising; no compound was filed as active; the % refers to the polarisation; negative = inhibition;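 further: % of control where 0% means no effect; inhibitors lower the polarisation; unlabelled MLL peptide was the positive control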
D2 agonist = Beta-Arrestin HTS for Positive Allosteric Modulators of the Human D2 Dopamine Receptor: Agonists; 0.084% of 360,000 active; D(2) dopamine receptor (Homo sapiens), P14416; activation, % (concentration not given with the values); DiscoveRx PathHunter D2 beta-arrestin, luminescence, 90 min; 100% = 57 uM dopamine signal; AID 624465, 2012; in the data active = activation above about 40%; inconclusive = about 15% to 40%; inactive = below about 15%; further: compound concentration not given in the record; the text of the record calls up to 30% inactive
Target sequence (P14416 whole entry, looked up): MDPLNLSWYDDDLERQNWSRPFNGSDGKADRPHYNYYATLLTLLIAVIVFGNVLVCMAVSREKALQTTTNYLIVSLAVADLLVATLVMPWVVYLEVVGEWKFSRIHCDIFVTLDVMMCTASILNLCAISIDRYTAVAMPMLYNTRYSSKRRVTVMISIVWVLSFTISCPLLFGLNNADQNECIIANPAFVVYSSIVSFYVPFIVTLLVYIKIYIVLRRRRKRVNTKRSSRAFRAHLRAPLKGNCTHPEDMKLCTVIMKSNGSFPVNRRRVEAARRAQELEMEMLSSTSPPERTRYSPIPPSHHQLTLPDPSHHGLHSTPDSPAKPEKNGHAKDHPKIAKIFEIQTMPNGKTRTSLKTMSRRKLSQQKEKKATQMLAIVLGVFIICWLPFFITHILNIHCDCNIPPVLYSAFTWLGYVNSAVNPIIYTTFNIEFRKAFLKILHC
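DiscoveRx PathHunter D2 beta-arrestin cells (2,100/well) attached overnight, then compound-stimulated 90 min at 37 C in HBSS/10 mM HEPES/0.1% Tween-20 buffer; beta-galactosidase complementation read by luminescence after 1 h at ambient temperature. Dopamine 57 uM final (EC100) as control.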
Sfp PPTase inh = qHTS Assay for Inhibitors of Bacillus subtilis Sfp phosphopantetheinyl transferase (PPTase); 3.5% of 310,000 active; Biochemical Sfp PPTase activity, qHTS; 4'-phosphopantetheinyl transferase ffp (Bacillus subtilis), Q9F4F7; AID 1490, 2009; Potency, µM, for the others: max response, negative = inhibition, usual class: inhibitors; active means well fitted inhibition curve with a large enough effect; inconclusive means small, poorly fitted or top-dose-only effect, or another doubt; inactive means no such curve, though single readings can be large or run the other way;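 further: the enzyme is Sfp with the accession as filed and its product quenches rhodamine fluorescence; potency means the concentration at half of the fitted maximal effect; 0% = enzyme reaction without inhibitor and -100% = no enzyme wells; top concentration of the series not given in the record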
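Buffer: 50 mM Hepes-Na pH 7.6, 10 mM MgCl2, 0.01% Nonidet P-40, 0.01% BSA. Enzyme 15 nM, pre-exposed to compound 15 min; substrates then added and fluorescence change tracked over 30 min.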
* hit, by the source's call; ? = inconclusive; . = no result given; [ ] = another dose, or the depositor's remark.

Start of the data: the first seven compounds, to show the layout:
SMILES	gsp ag	ClpP mod	gsp antagonist	PINK1 expr mod	Menin MLL FP FL	D2 agonist	Sfp PPTase inh
COc1cc(OC)c(C(=O)Nc2ccc(C(=O)c3ccccc3)cc2)cc1OC	-31%	.	?	1.3%	2.5	4.0	-5%
C=CCNC(=O)c1cccn1-c1ccsc1C(=O)OC	24%	2.0%	-6%[15.4 µM]	-0.9%	1.1	-0.8	4%
Cc1cccc(N(C(=O)CCC(=O)Nc2cc(C)on2)C(C(=O)NC2CCCC2)c2ccccc2)c1 (stereo not drawn)	31%[15.4 µM]	0.5%	-45%	2.3%	-2.4	-2.5	15%
CC[C@@H](CCC=C(C)C)C(=O)N(Cc1ccccc1)c1ccccc1	9%	1.8%	-9%	7.5%	.	-2.0	.
Cc1ccc(C(=O)Nc2c[nH]c(=O)[nH]c2=O)cc1	-4%[15.4 µM]	-0.1%	7%	-1.3%	-3.9	0.2	2%
O=C(O)c1cc(O)c2c(c1)[C@H]([C@H]1c3cc(C(=O)O)cc(O)c3C(=O)c3c(O[C@@H]4O[C@H](CO)[C@@H](O)[C@H](O)[C@H]4O)cccc31)c1cccc(OC3O[C@H](CO)[C@@H](O)[C@H](O)[C@H]3O)c1C2=O (stereo partly drawn)	.	-11%	-12%	1.3%	.	-1.0	.
COc1ccc(NC(=O)c2cc(-c3cccs3)on2)cc1OC	9%	?	3%	-0.1%[38.3 µM]	3.4	-1.3	15%

The listing, from the first entry:
SMILES	gsp ag	ClpP mod	gsp antagonist	PINK1 expr mod	Menin MLL FP FL	D2 agonist	Sfp PPTase inh
COc1cc(OC)c(C(=O)Nc2ccc(C(=O)c3ccccc3)cc2)cc1OC	-31%	.	?	1.3%	2.5	4.0	-5%
C=CCNC(=O)c1cccn1-c1ccsc1C(=O)OC	24%	2.0%	-6%[15.4 µM]	-0.9%	1.1	-0.8	4%
Cc1cccc(N(C(=O)CCC(=O)Nc2cc(C)on2)C(C(=O)NC2CCCC2)c2ccccc2)c1 (stereo not drawn)	31%[15.4 µM]	0.5%	-45%	2.3%	-2.4	-2.5	15%
CC[C@@H](CCC=C(C)C)C(=O)N(Cc1ccccc1)c1ccccc1	9%	1.8%	-9%	7.5%	.	-2.0	.
Cc1ccc(C(=O)Nc2c[nH]c(=O)[nH]c2=O)cc1	-4%[15.4 µM]	-0.1%	7%	-1.3%	-3.9	0.2	2%
O=C(O)c1cc(O)c2c(c1)[C@H]([C@H]1c3cc(C(=O)O)cc(O)c3C(=O)c3c(O[C@@H]4O[C@H](CO)[C@@H](O)[C@H](O)[C@H]4O)cccc31)c1cccc(OC3O[C@H](CO)[C@@H](O)[C@H](O)[C@H]3O)c1C2=O (stereo partly drawn)	.	-11%	-12%	1.3%	.	-1.0	.
COc1ccc(NC(=O)c2cc(-c3cccs3)on2)cc1OC	9%	?	3%	-0.1%[38.3 µM]	3.4	-1.3	15%
Cc1ccc(C(=O)C(C)OC(=O)c2cc(=O)[nH]c3ccccc23)cc1 (stereo not drawn)	-44%	3.5%	-19%	1.3%	.	-3.9	.
c1ccc2c(-n3cnnn3)cccc2c1	11%	-13%	16%	24%[38.3 µM]	4.6	-2.0	-4%
Cc1ncc(CO)c(CNc2ccc(-c3nc4ccccc4[nH]3)cc2)c1O	-14%	3.2%	-13%	-2.1%	3.3	-6.4	-8%
Cc1cccc(OCC(=O)Oc2ccc(Cl)cc2)c1	-5%[15.4 µM]	.	2%	-0.1%	.	-3.1	.
O=C1CC2c3ccccc3C1C1C(=O)N(Cc3ccccc3)C(=O)C21 (stereo not drawn)	-24%[15.4 µM]	.	18%	1.3%	-2.0	-0.6	11%
COc1ccc(N2CCN(CCCNC(=O)c3ccc(CS(=O)(=O)c4ccc(OC)cc4)o3)CC2)cc1	3%	-2.9%	-19%	-0.7%	.	-1.2	10%
Nc1nnnn1/N=C/c1ccc(O)cc1	-22%	-22%	9%	-1.2%	1.7	0.2	-1%
CCN1C(=O)C2(C(C#N)=C(N)Oc3n[nH]c(-c4ccccc4)c32)c2ccccc21 (stereo not drawn)	0%	-1.5%	1%	0.0%	-1.7	2.0	2%
O=C(Nc1ccc(F)cc1F)N1CCN(CCc2ccccc2)CC1	-33%[inhibitor][15.4 µM]	.	5%	-2.2%	-0.3	-1.8	12%
COc1cccc(/C=N/NC(=O)CNC(=O)c2ccc(S(=O)(=O)N3CCOCC3)cc2)c1OC	-11%[15.4 µM]	32µM*	9%	3.8%	3.7	-2.1	6%
O=C(CN1CCCCC1)Nc1ccccc1C(=O)NC1CC1	?	-4.5%	-14%	1.7%	.	-0.8	.
CC(=O)c1cc2c(O)c(O)ccc2o1	-1%	-31%	-5%	7.8%	3.0	6.7	56µM*
C=CCn1c(SCc2nc3sc4c(c3c(=O)[nH]2)CCCC4)nc2ccccc2c1=O	-12%	-1.5%	10%	?	7.8	-6.7	4%
O=C(NCCCl)Nc1ccccc1NS(=O)(=O)c1cccs1	-3%[15.4 µM]	-0.1%	10%	-1.8%	.	-2.4	.
CCCc1cc(=O)[nH]c(SCC(=O)N2CCc3ccccc32)n1	11%	0.1%	-27%	0.1%	.	2.2	.
Cc1cc(C)c(S(=O)(=O)Nc2ccc[nH]c2=O)c(C)c1	8%	-0.9%	-14%	2.3%	-12	-2.9	50µM*
COCCNC(=O)c1c[nH]c2ccc(S(=O)(=O)N(C)c3ccc(C)c(C)c3)cc2c1=O	15%	.	?	0.0%	4.7	11	1%
Cc1cc(C)n(CCc2nc(-c3ccc(F)cc3)cs2)n1	-28%	.	-4%	-1.8%	6.6	-3.0	13%
O=C(C[n+]1ccc(/C=N/O)cc1)NCc1ccccc1	-31%[inhibitor]	0.3%	10%	1.0%	0.2	-5.4	14%
NS(=O)(=O)c1cccc(-n2cnnn2)c1	8%[15.4 µM]	.	2%	2.6%	4.9	-1.1	14%
CNC(=S)NNS(=O)(=O)c1ccc(OC)cc1OC	4%	.	11%	1.2%	0.0	-3.1	25µM*
O=C(CC1(O)C(=O)Nc2ccccc21)c1cccnc1 (stereo not drawn)	10%	-0.1%	4%	.	2.4	-1.4	17%
NS(=O)(=O)c1ccc(CNC(=O)CNC(=O)c2ccc(F)cc2)cc1	-27%	-1.1%	4%	1.6%	1.8	-5.4	9%

Compound profiles (already shown):
`Cc1cc(C)n(CCc2nc(-c3ccc(F)cc3)cs2)n1` in the list: gsp ag: -28%; ClpP mod: .; gsp antagonist: -4%; PINK1 expr mod: -1.8%; Menin MLL FP FL: 6.6; D2 agonist: -3.0; Sfp PPTase inh: 13%
`O=C(CC1(O)C(=O)Nc2ccccc21)c1cccnc1` (stereo not drawn) in the list: gsp ag: 10%; ClpP mod: -0.1%; gsp antagonist: 4%; PINK1 expr mod: .; Menin MLL FP FL: 2.4; D2 agonist: -1.4; Sfp PPTase inh: 17%

Next compounds.
SMILES	gsp ag	ClpP mod	gsp antagonist	PINK1 expr mod	Menin MLL FP FL	D2 agonist	Sfp PPTase inh
NC(=O)c1ccc(NC(=O)COC(=O)C(Cc2ccccc2)NC(=O)c2ccccc2)cc1 (stereo not drawn)	0%[15.4 µM]	.	-7%	2.9%	3.1	1.9	8%
COC(=O)c1ccc(COc2ccc3c4c(c(=O)oc3c2)CCC4)o1	?	3.2µM*	9%	0.0%	0.5	-1.3	-13%
COc1ccc(-c2cc3nc(NCCOc4ccccc4)ccn3n2)cc1	.	5.2%	.	0.7%	.	6.2	.
S=C(Nc1ccc2nsnc2c1)N1CCCC1	0%[15.4 µM]	.	6%	-0.7%	?	-1.3	14µM*
O=C1NC2(CCCCC2)C(=O)N1c1ccccc1	3%	-1.0%	0%	0.5%	-1.8	-0.1	8%
COc1ccc(N(CC(=O)NCc2ccccc2C)S(=O)(=O)c2ccc(C)cc2)cc1OC	0%[15.4 µM]	.	-10%	14%	2.7	0.2	19%
Cc1ccc(CCNC(=O)c2ccc3nc4ccccc4c(=O)n3c2)cc1	?	3.7%	-5%	6.9%	-0.5	2.1	-25%
CN(C)S(=O)(=O)c1cccc(-c2cn3ccccc3n2)c1	-13%	?	-3%	1.6%	6.4	0.8	-9%
COc1ccc(/C=C2\CCn3c2nc2cc(C(=O)O)ccc2c3=O)cc1OC	-5%[15.4 µM]	.	-33%	9.1%	-1.3	-2.1	4%
O=C(N/N=C/c1cccc(NC(=O)c2ccc(Cl)cc2)c1)c1ccc(O)cc1	-6%	0.1%	-1%	8.2%	-29	5.9	-9%
CC(C)c1ccc2[nH]c(O)c(N=NC(=O)c3cccc(S(=O)(=O)N4CCCCC4)c3)c2c1	12%	-1.5%	-12%	1.1%	2.2	-5.8	11%
CN1CCN(C2=NC(=O)/C(=C/c3ccccc3OS(=O)(=O)c3ccccc3)S2)CC1	9%[15.4 µM]	.	-16%	1.8%	-1.3	-3.0	20µM*
Cc1cc(/C=C(\C#N)C(=O)Nc2ccccc2)c(C)n1-c1ccc2c(c1)OCO2	-41%[inhibitor]	-9.4%	-25%	?	3.7	-0.6	-11%
O=C(Nc1ccccc1Cl)O/N=C(/c1ccccc1)c1ccccn1	-3%[15.4 µM]	-0.5%	11%	2.0%	-0.3	-6.1	79µM*
CCCn1c(SCC(=O)c2[nH]c(C)c(C(C)=O)c2C)n[nH]c1=O	5%[15.4 µM]	.	-3%	1.9%	0.4	-3.0	16%
O=S(=O)(c1ccccc1)c1ccc(C(F)(F)F)cn1	-72%[inhibitor]	.	7%	4.2%	-2.1	0.3	19%
Cc1cc([N+](=O)[O-])ccc1Nc1nc2ccccc2n2cnnc12	4%	-1.6%	-7%	1.9%	5.4	4.8	-2%
